Bioassay records from PubChem.
KCNQ2 pot – potentiators of rat KCNQ2 potassium channel. CHO-K1 KCNQ2, FluxOR thallium flux fluorescence; hits give high values. B-score at 10 µM. hit rate 0.54% among 310,000. AID 2239, 2010;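 active = fluorescence ratio B-score at least 3 SD of library B-scores, with initial fluorescence B-score within 3 SD, cut at about 5.3 in these data; same plate scores as AID 2156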;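 note: B-score of peak minus minimum over baseline fluorescence ratio after K+ and Tl+ stimulus; positive B-score means potentiation of KCNQ2 with more thallium influx and brighter signal; only the inactives scoring about 0 or higher are listed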
Target sequence (O88943 whole entry, looked up): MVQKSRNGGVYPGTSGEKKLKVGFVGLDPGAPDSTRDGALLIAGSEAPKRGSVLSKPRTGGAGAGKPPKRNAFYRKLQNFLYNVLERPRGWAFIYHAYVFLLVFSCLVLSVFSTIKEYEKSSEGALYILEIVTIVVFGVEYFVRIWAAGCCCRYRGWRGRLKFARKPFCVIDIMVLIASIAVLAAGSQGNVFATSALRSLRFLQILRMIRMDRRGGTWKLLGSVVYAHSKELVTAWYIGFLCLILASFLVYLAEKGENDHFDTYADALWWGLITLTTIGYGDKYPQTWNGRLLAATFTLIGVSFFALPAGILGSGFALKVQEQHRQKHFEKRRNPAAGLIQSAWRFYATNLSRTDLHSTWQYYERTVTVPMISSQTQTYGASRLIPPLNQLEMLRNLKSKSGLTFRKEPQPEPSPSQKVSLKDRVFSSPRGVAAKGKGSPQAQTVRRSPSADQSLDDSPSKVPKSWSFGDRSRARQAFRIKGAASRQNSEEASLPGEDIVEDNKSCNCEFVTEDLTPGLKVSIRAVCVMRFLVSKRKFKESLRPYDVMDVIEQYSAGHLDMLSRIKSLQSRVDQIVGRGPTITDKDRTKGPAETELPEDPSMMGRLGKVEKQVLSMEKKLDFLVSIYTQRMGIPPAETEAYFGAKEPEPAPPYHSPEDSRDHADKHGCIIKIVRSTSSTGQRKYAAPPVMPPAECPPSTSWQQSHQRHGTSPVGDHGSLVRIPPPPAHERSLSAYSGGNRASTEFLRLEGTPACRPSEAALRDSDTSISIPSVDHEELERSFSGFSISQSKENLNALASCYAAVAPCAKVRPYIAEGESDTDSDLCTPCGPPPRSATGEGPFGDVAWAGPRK
KCNQ2 pot baseline – further read-out of KCNQ2 pot, marked with its call; B-score; compound at 10 µM; measured here: initial fluorescence intensity artifact check;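 brightness before thallium and not channel activity; 0 = typical well and far values either way flag optical interference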
* marks the source's active call; other numbers are inactive results. Not all compounds are listed, so the mix of outcomes need not match the whole.

KCNQ2 pot,KCNQ2 pot baseline,Compound
1.07,-0.05,CC(=O)c1cc(CN2CCC(n3nccc3NC(=O)c3ccccc3C)CC2)cs1
0.01,-0.45,CC(C)(C)C(=O)Nc1ncccc1C(O)c1cccc(C(F)(F)F)c1 (stereo not given)
1.74,0.17,COc1ccc(S(=O)(=O)N(Cc2cccnc2)Cc2cc3ccccc3[nH]c2=O)cc1
1.18,1.81,O=C(Nc1ccc2nsnc2c1)NC1CCCCC1
1.07,-0.88,CCOc1cc(/C=N/NC(=O)C(=O)N/N=C/c2ccc(O)c(OCC)c2)ccc1O
0.1,-0.56,O=C(CN1C(=O)NC2(CCCCCC2)C1=O)N1CCC(Cc2ccccc2)CC1
1.6,-1.48,OCCNCCOc1ccccc1F
1.28,-2.77,CC(=O)NS(=O)(=O)c1ccc(NC(=O)CC(C)c2ccccc2)cc1 (stereo not given)
0.91,2.33,O=C1C2CCCN2C(c2ccccc2)N1c1nccs1 (stereo not given)
1.8,1.24,CC(C)CCNC(=O)C1CC(=O)N(C2CCCC2)C1 (stereo not given)
0.15,-0.96,CCOc1nc(NCCN2CCOCC2)nc(Nc2ccc(C)cc2)n1
0.08,0.55,N#Cc1ccsc1NC(=O)CN1CCN(c2ccccc2O)CC1
1.23,-1.29,Cc1cc2c(cc1S(=O)(=O)N(C)Cc1ccccc1)n(C)c(=O)c(=O)n2C
11.1*,-0.28*,S=c1nc(Cc2ccc(Cl)cc2)[nH]c2ccccc12
0.54,-0.61,COc1ccc(-c2[nH]ncc2CN2CCC(C(=O)c3ccc(F)cc3)CC2)cc1
0.58,0.24,O=C(c1ccc(F)cc1)c1cnc(Nc2ccccc2)s1
1.4,-0.19,N=C1CCCN1CC(=O)c1cccs1
0.5,-0.12,Cc1ccc(C(=O)NCc2ccco2)cc1S(=O)(=O)N1CCCC1
0.7,2.1,COC(=O)c1ccccc1Nc1ccnc(Cl)n1
3.78,0.64,COC(C[C@@H]1O[C@H]1C(=O)COCc1ccccc1)OC

(cont.)
KCNQ2 pot,KCNQ2 pot baseline,Compound
0.18,-1.62,Cc1ccc(CN2CC(C(=O)NCC(=O)Nc3c(C)cccc3C)CC2=O)cc1 (stereo not given)
19.5*,-0.84*,CCN(CCCn1c(=S)[nH]c2ncccc2c1=O)c1ccccc1
2.03,-0.63,O=C(CNS(=O)(=O)Cc1ccccc1)NCc1ccccc1
2.3,0.78,CCC(CC)C(=O)c1c[nH]c(C(=O)NCCc2ccccn2)c1
1.25,0.71,CN1C(=O)c2cccc(NC(=O)Cc3ccccc3)c2C1=O
1.51,-1.09,CCc1c(C)nc2ncnn2c1Nc1ccc(C)c(C)c1
0.5,-1.14,COc1ccccc1CNC(=O)C1Cc2cc(S(=O)(=O)N3CCCC3)ccc2N1C(C)=O (stereo not given)
0.47,1.84,O=C(Nc1ccc(Cl)cc1Cl)c1ccc2c(=O)n3c(nc2c1)CCC3
0.28,-1,CCCNC(=O)NNC(=O)c1cc(-c2ccc3c(c2)OCO3)nc2ccccc12
0.54,-1.19,O=C(CCC(=O)N1CCN(S(=O)(=O)c2ccc(Cl)cc2)CC1)Nc1ccc2ccccc2c1
1.67,-0.9,CCOCCCNC(=O)C(NC(=O)c1cnccn1)c1ccc(C)cc1 (stereo not given)
1.22,-1.23,CCn1cc(S(=O)(=O)N2CCCC2)cn1
1.44,-2.07,O=c1cc(N2CCC3(CC2)OCCO3)[nH]c(=O)n1C1CCCCC1
1.34,1.63,COc1cccc(NC(=O)C2CCCN(S(C)(=O)=O)C2)c1 (stereo not given)
1.69,-0.59,CSc1nnc([C@H](Cc2c[nH]c3ccccc23)NC(=O)OC(C)(C)C)o1
0.7,-0.14,CCOCCCNCC(=O)Nc1ccc(S(=O)(=O)NC(C)CC)cc1 (stereo not given)
0.02,-1.05,CCCOc1ccc(C2C(C(=O)c3ccco3)=C(O)C(=O)N2CCN2CCOCC2)cc1OC (stereo not given)
1.28,-1.36,O=C(COC(=O)c1c(Cl)ccc(Cl)c1Cl)NC(=O)NCc1ccccc1
0.04,0.76,COc1ccc(CCN=C(N)NS(=O)(=O)c2ccc(F)cc2)cc1
0.98,-0.24,CCOc1ccc(NC(=O)CN(C)C(=O)CCc2ccccc2Cl)cc1OCC

One compound at a time, from the list above. Values in the order: KCNQ2 pot	KCNQ2 pot baseline
CC(=O)NS(=O)(=O)c1ccc(NC(=O)CC(C)c2ccccc2)cc1 (stereo not given) is entered as 1.28	-2.77
COC(C[C@@H]1O[C@H]1C(=O)COCc1ccccc1)OC is entered as 3.78	0.64
OCCNCCOc1ccccc1F is entered as 1.6	-1.48

The main list resumes, repeating the five entries before the break.
KCNQ2 pot,KCNQ2 pot baseline,Compound
0.7,-0.14,CCOCCCNCC(=O)Nc1ccc(S(=O)(=O)NC(C)CC)cc1 (stereo not given)
0.02,-1.05,CCCOc1ccc(C2C(C(=O)c3ccco3)=C(O)C(=O)N2CCN2CCOCC2)cc1OC (stereo not given)
1.28,-1.36,O=C(COC(=O)c1c(Cl)ccc(Cl)c1Cl)NC(=O)NCc1ccccc1
0.04,0.76,COc1ccc(CCN=C(N)NS(=O)(=O)c2ccc(F)cc2)cc1
0.98,-0.24,CCOc1ccc(NC(=O)CN(C)C(=O)CCc2ccccc2Cl)cc1OCC
1.09,0.09,C/C=C/n1ccnc1CC(O)(c1ccccc1)c1ccc(C)cc1 (stereo not given)
1.22,-0.82,CCOc1ccc(OCC(=O)OC(C)C(=O)Nc2ccc(Cl)cn2)cc1 (stereo not given)
0.17,1.41,COCCn1c(SCc2nc3sc(C(=O)OC)c(C)c3c(=O)[nH]2)nc2ccccc21
0.48,0.91,Cc1nc2ccccc2n1CC(O)COCC1CC=CCC1 (stereo not given)
1.35,-0.89,Cc1ccsc1C1C(C#N)=C(N)N(N(C)C)C2=C1C(=O)CCC2 (stereo not given)
0.02,0.19,CCc1ccc(C(=O)COC(=O)c2ccc(-c3nnc(-c4ccccc4)o3)cc2)cc1
0.03,1.22,Cc1ccc2c(c1)NC(=O)C(CC(=O)NC1CCCCC1C)O2 (stereo not given)
0.07,0.2,Cc1ccc2c(c1)N(CCCC(=O)NCCCN1CCCC1=O)C(=O)CO2
0.13,-0.18,CC(C)c1nc2sc3c(=O)[nH]cnc3c2c2c1CCCC2
0.52,0.89,CSc1ccc(/C=N/NC(=O)c2ccc(O)cc2)cc1
0.9,-0.02,Cn1c(Cl)nc2ccccc21
0.02,0.05,COc1ccc(S(=O)(=O)NCC2CCCN(C(=O)CC3CCCC3)C2)cc1 (stereo not given)
9.69*,-0.27*,CCc1ccc2c(c1)c(N=NC1=NC(=O)CS1)c(O)n2CC
0.39,0.08,COc1ccc(/C=C2/SC(=S)N(CCCC(=O)Nc3ccccc3C(=O)O)C2=O)cc1
1.13,-0.21,CCn1c(=O)c(C(=O)NNC(=O)c2ccccc2Br)c(O)c2ccccc21
2.21,0.1,O=C1COCCOCCOCCOCC(=O)NCCN1
1.09,-0.64,COc1ccc2cc(C3NC(=O)c4ccccc4N3)c(Cl)nc2c1 (stereo not given)
0.01,-0.89,Cc1sc(-c2ccccn2)nc1OC(=O)c1ccc(Cl)c(Cl)c1
0.24,0.72,COc1ccc(-c2noc(N(C)CC(=O)Nc3cccc(C(F)(F)F)c3)n2)cc1
0.25,0.32,CCn1nnnc1SCC(=O)Nc1cc(OC)cc(OC)c1

Remaining list, next part
KCNQ2 pot,KCNQ2 pot baseline,Compound
0.96,0.02,CC(C)n1cnnc1SCC(=O)Nc1ccc(Br)cc1F
0.04,-2.22,COc1ccc(-n2c(SCC(=O)N3CCc4ccccc43)nnc2-c2c[nH]c3ccccc23)cc1
0.65,0.79,Cc1cccc(C)c1OCC(=O)Nc1ccccc1C(=O)N1CCOCC1
1.94,-1.72,Cc1cc(NC(=O)CSc2sc3c(O)cc(=O)[nH]c3c2C#N)ccc1Br
1.37,0.02,CC1Cc2ccccc2N1c1ncnc(N)c1[N+](=O)[O-] (stereo not given)
0.76,-0.88,Cc1ccc(-n2c(C)cc(/C=N/NC(=O)CN(c3ccc(C)cc3C)S(C)(=O)=O)c2C)cc1
0.95,0.46,O=C(Nc1cccc2ccccc12)NC(Cc1ccccc1)C(=O)O (stereo not given)
1,-3.94,CCOc1ccccc1NC(=O)C1CC2CCCC(C1)C2=O (stereo not given)
1.43,-1.19,COc1ccccc1C(=O)Nc1c2c(nn1-c1ccc(Cl)cc1)CS(=O)(=O)C2
0.58,-1.68,CC(=O)Nc1cc(C(=O)OCc2cccc([N+](=O)[O-])c2)ccc1C
1.08,0,O=C(COc1ccccc1[N+](=O)[O-])N(Cc1ccco1)C1CCS(=O)(=O)C1 (stereo not given)
1.27,-0.56,COC(=O)CN1C(=S)N(c2ccc(F)cc2)C(=O)C1CC(=O)Nc1ccc(F)cc1 (stereo not given)
0.88,-0.91,COc1cc(NS(=O)(=O)c2ccc(NC(=O)/C(=C\c3ccccc3OC)NC(=O)c3ccccc3)cc2)nc(OC)n1
0.02,0.04,Cc1c(NC(=O)c2c(N)sc3c2CCCC3)c(=O)n(-c2ccccc2)n1C
1.38,-0.65,CCCOC(=O)Cn1cnc2scc(-c3ccc(OC)cc3)c2c1=O
0.04,-0.94,CSc1ccc(/C=N/Nc2nc(C)cc(=O)[nH]2)cc1
1.19,1.38,COc1ccccc1NC(=O)c1c(O)c2ccccc2[nH]c1=O
2.11,0.99,COCCNC(=S)N(CCc1c(C)[nH]c2ccc(C)cc12)Cc1cccnc1
0.79,-1.56,CC1=CC(=O)C2=C(C)CC[C@@H]3[C@H](OC(=O)[C@H]3C)[C@@H]12
1.39,-1.44,CC1=CC(C)(C)N2C(=O)C(=Nc3ccc(O)cc3)c3cccc1c32

(more compounds)
KCNQ2 pot,KCNQ2 pot baseline,Compound
0.31,-0.08,COc1cc(C(=O)NCc2nnc(SCC(=O)Nc3nc4ccccc4s3)o2)cc(OC)c1OC
0.52,-1.38,CC(/C=C/c1ccc2c(c1)OCO2)=N/NC(=O)c1ccncc1
0.31,-0.3,N#Cc1ccc(CN2CCN(C(=O)CC(NC(=O)c3ccccc3)c3ccccc3)CC2)cc1 (stereo not given)
0.2,-0.68,COc1ccc2ccccc2c1/C=N/NC(=O)CC1(C)OCCCO1
0.07,1.07,C/C=C(\C)C(=O)Nc1cccc(C2=NOC3(C2)C[C@H](C(N)=O)N(C(=O)C(c2ccccc2)c2ccccc2)C3)c1 (stereo not given in full)
13.9*,1.18*,CCOC(=O)c1sc2ncnc(NCc3ccco3)c2c1C
1.22,-1.34,CCN1C(=O)C(C(=O)NC(C)c2ccccc2)C2CC1(C)Oc1ccccc12 (stereo not given)
0.63,1.18,O=C(O)c1ccc(-n2c(-c3cc(C4CC4)[nH]n3)n[nH]c2=S)cc1
0.2,0.71,CCCCCn1c(SC(C)C(C)=O)nc2c1c(=O)[nH]c(=O)n2C (stereo not given)
0.05,1.38,O=C1c2ccccc2S(=O)(=O)N1CC1CC(c2ccc(Cl)cc2)=NO1 (stereo not given)
1.58,-0.37,Fc1cccc(F)c1-c1nc2c(s1)CCc1onc(-c3ccc(Br)cc3)c1-2
0.58,-0.54,O=C(NCc1ccc(F)cc1)C1CCCN(C(=O)Nc2ccc(F)cc2)C1 (stereo not given)
0.21,-0.64,O=C(NCC(c1ccc(F)cc1)N1CCOCC1)c1ccc(Br)o1 (stereo not given)
0.72,0.23,NS(=O)(=O)OCC1CCCCC1
0.02,0.37,Cc1ccc(S(=O)(=O)N2CCN(C(=O)CCc3nc4ccccc4c(=O)[nH]3)CC2)c(C)c1
0.1,-0.27,CN(CCO)C(=O)c1ccc(-c2nn(C)c(=O)c3ccccc23)cc1
0.62,1.89,COc1ccc(S(=O)(=O)N2CC=C(C(=O)NC3CCCC3)CC2)cc1
0.45,-0.18,O=C(COC(=O)c1cccc(S(=O)(=O)NCc2ccccc2)c1)Nc1ccccc1OC(F)F
2.04,1.49,O=c1cc(-c2ccccc2)oc2ccc(O)cc12
0.87,0.02,COc1cc(OC)cc(C(=O)N(Cc2cc3cc(C)ccc3[nH]c2=O)C(C)C)c1

Gathered by group, those above with a COOH group
KCNQ2 pot,KCNQ2 pot baseline,Compound
0.39,0.08,COc1ccc(/C=C2/SC(=S)N(CCCC(=O)Nc3ccccc3C(=O)O)C2=O)cc1
0.95,0.46,O=C(Nc1cccc2ccccc12)NC(Cc1ccccc1)C(=O)O (stereo not given)
0.63,1.18,O=C(O)c1ccc(-n2c(-c3cc(C4CC4)[nH]n3)n[nH]c2=S)cc1

Other structures follow.
KCNQ2 pot,KCNQ2 pot baseline,Compound
1.99,-0.34,O=C(COC(=O)C(Cc1ccccc1)NC(=O)c1ccc(Cl)cc1)c1ccc(Cl)cc1 (stereo not given)
0.15,0.24,Cc1ccc(NC(=O)COC(=O)CSC(=S)N2CCOCC2)cc1
0.74,0.69,Cc1[nH]c(=O)[nH]c1CN1CCCCC1
0.02,0.1,Cn1c(=O)c2c(nc(SCC(=O)N3CCc4ccccc4C3)n2C)n(C)c1=O
1.1,-0.47,CC(CCc1ccccc1)NC(=O)c1ccc(F)cc1 (stereo not given)
0.37,-3.17,Cc1ccc(S(=O)(=O)/C(C#N)=C/c2c(N3CCCCC3)nc3ccccn3c2=O)cc1
1.58,-0.29,COc1ccc(Cl)cc1C(=O)NNC(=S)NC(=O)c1cc(-c2ccc(Cl)cc2)nc2ccccc12
0.4,-1.15,N#CCC(CNc1ncc(C(F)(F)F)cc1Cl)OC(=O)c1cccc(C(F)(F)F)c1 (stereo not given)
0.12,0.23,Cc1cccc(Nc2nnc(SCc3cn4ccsc4n3)s2)c1
1.9,-0.18,CC1=C(C#N)C(Nc2cc(C)ccn2)(C(F)(F)F)C(=O)N1 (stereo not given)
0.75,-1.22,CSCCC(N=Cc1c(O)n(-c2ccc(F)cc2)c(=O)[nH]c1=O)C(=O)O (stereo not given)
1.48,0.01,O=Cc1ccc(O)c(O)c1
0.09,-0.23,COc1ccc(NC(=O)C23CC4CC(C2)CC(n2cnc(Br)n2)(C4)C3)cc1OC
